# Source: PubChem BioAssay
# VDR inhibitor: inhibitors of human vitamin D receptor | P11473 | VDR-SRC2-3 peptide fluorescence polarization, 2 h | Potency, µM, inactives show max response, negative = inhibition, hits mostly inhibitors | actives 0.93% (n = 400,000) | AID 504847; active = well fitted inhibition curve with a large enough effect; inconclusive = small, poorly fitted or top-dose-only effect, or another doubt; inactive = no such curve, though single readings can be large or run the other way; note: series mostly up to about 120 µM
# Target sequence (P11473 whole entry, looked up): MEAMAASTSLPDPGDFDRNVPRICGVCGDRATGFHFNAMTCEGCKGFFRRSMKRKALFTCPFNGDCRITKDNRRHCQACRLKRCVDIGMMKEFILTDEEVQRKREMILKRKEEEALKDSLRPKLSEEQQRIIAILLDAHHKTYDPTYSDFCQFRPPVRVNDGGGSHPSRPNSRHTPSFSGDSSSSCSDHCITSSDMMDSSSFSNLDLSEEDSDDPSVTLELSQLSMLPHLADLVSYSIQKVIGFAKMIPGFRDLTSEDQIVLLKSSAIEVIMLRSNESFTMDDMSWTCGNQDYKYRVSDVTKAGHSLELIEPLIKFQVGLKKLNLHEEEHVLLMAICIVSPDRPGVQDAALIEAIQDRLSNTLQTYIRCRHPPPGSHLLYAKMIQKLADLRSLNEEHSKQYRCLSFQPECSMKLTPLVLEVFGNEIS
#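 Measured by FP: displacement of SRC2-3 coactivator peptide from VDR by library compounds, following a two-hour ambient incubation.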
# The depositor's hits bear a star; u = inconclusive; & = joins results of further samples. % is set by controls: 0 for no effect and ±100 for the full control effect; potency is the fitted concentration of half-maximal effect. These rows are one share of the data. The share of hits here may be higher or lower than overall.
VDR inhibitor,structure
7%,COc1cccc(CNC(=O)Cn2c(=O)ccc3cc(S(=O)(=O)N4CCC(C)CC4)ccc32)c1
10%,O=S(=O)(/C=C/c1ccccc1)N1CCc2ccccc2C1
-14%,CC(C(=O)NCc1ccco1)c1ccc([N+](=O)[O-])cc1 (centres undefined)
12%,CCOC(=O)C1CCN(C(=O)/C=C/c2ccc3c(c2)OCO3)CC1
-19%,CCCC(CCC)=NNC(=O)CN(Cc1ccccc1)S(=O)(=O)c1ccccc1
6%,CCN(CC)CCNC(=O)c1cn(CC)c2ccc(S(=O)(=O)N(C)C)cc2c1=O
4%,Cc1cc(C)cc(Nc2cc(C(=O)NC3CCCCC3)c3ccccc3n2)c1
-1%,CCOC(=O)C1=C(CN2CCC(C)CC2)NC(=O)NC1c1ccc(OC(C)C)cc1 (centres undefined)
10%,C=CCN(CC=C)CCOc1ccccc1[N+](=O)[O-]
4%,CCc1[nH]nc(C(=O)N2CCCC(Nc3cccc(F)c3)C2)c1C (centres undefined)
2%,O=C(CCCN1C(=O)/C(=C\c2cccs2)SC1=S)Nc1cccc(C(=O)O)c1
4%,COc1ccccc1N1CC(C(=O)NCCC2=CCCCC2)CC1=O (centres undefined)
-15%,COc1cccc(CNC(=O)c2cc3ccccn3n2)c1
-8%,CN(C(=O)CC(=O)Nc1ccc2nc3n(c(=O)c2c1)CCCCC3)c1ccccc1F
1%,COc1cccc(CNC(=O)c2nnc(Cc3ccc(Cl)cc3)o2)c1
-11%,Cc1cc(N2CCOCC2)nc(N2CCOCC2)n1
-1%,CCOC(=O)c1cc(-c2ccccc2)n(CCC(=O)Nc2ccc(Cl)c(C(F)(F)F)c2)c1C
u,Cc1ccc(S(=O)(=O)N2CCCC2c2nc3ccccc3s2)cc1 (centres undefined)
3%,Cc1noc(C)c1C(=O)OCC(=O)NCCc1ccc(Cl)cc1
-7%,COc1ccccc1N1CCN(C(=O)Cn2ncc3c(=O)oc4ccccc4c32)CC1
-19%,COCCN(C(=O)COC(=O)/C=C/c1ccc2ccccc2n1)c1c(N)n(Cc2ccccc2)c(=O)[nH]c1=O
-27%,CC(=O)NS(=O)(=O)c1ccc(N=NN2CCCCC2)cc1
2%,O=C(O)CCC(=O)N1CCc2cc(S(=O)(=O)NCCc3ccc(Cl)cc3)ccc21
-11%,O=C(CCCC1=NS(=O)(=O)c2ccccc2N1)OCc1ccc(Cl)cc1
-26%&3%,CCN(CC)CCC(c1ccc2c(c1)OCO2)c1c(OC)cc(OC)c2c(-c3ccccc3)cc(=O)oc12 (centres undefined)
14%,O=C(NN1C(=O)c2ccc(-c3ccc4c(c3)C(=O)N(NC(=O)c3cccnc3)C4=O)cc2C1=O)c1cccnc1
0%,CC(C)=CCN1CCN(Cc2cccn2-c2ncccn2)CC1CCO (centres undefined)
-3%,COc1ccc2c(CN(C)c3ccccc3)cc(=O)oc2c1
-16%,COc1ccc(Nc2nc(C)cc(C)n2)cc1Cl
-6%,O=C(O)CC(=O)Nc1ccccc1C(=O)O

# Given field by field: part of the list above.
SMILES: COc1ccccc1N1CCN(C(=O)Cn2ncc3c(=O)oc4ccccc4c32)CC1
  VDR inhibitor = -7%
SMILES: COCCN(C(=O)COC(=O)/C=C/c1ccc2ccccc2n1)c1c(N)n(Cc2ccccc2)c(=O)[nH]c1=O
  VDR inhibitor = -19%
SMILES: CC(=O)NS(=O)(=O)c1ccc(N=NN2CCCCC2)cc1
  VDR inhibitor = -27%
SMILES: O=C(O)CCC(=O)N1CCc2cc(S(=O)(=O)NCCc3ccc(Cl)cc3)ccc21
  VDR inhibitor = 2%

# Returning to the listing, repeating the two entries before the break.
VDR inhibitor,structure
-16%,COc1ccc(Nc2nc(C)cc(C)n2)cc1Cl
-6%,O=C(O)CC(=O)Nc1ccccc1C(=O)O
-16%,COc1cccc(NC(=O)CN(C)C(=O)Cn2cnc3ccccc3c2=O)c1
-2%,O=C(CC1CCCCC1)NCC1CCCO1 (centres undefined)
-4%,CCC(C)(C(=O)NC1CCCC1)N(Cc1ccco1)C(=O)Cc1cccs1 (centres undefined)
-9%,Cc1ccc(/C=C/C(=O)C2C(=O)c3ccccc3C2=O)cc1
10%,COc1ccc(CCNCc2ccc(OCc3ccc(Cl)nc3)c(OC)c2)cc1OC
15%,O=C(CCc1ccccc1)N1CCN(Cc2ccc(F)cc2Cl)CC1
3%,COc1ccc(N2C(=O)c3ccccc3NC23C(=O)N(C)c2ccccc23)cc1 (centres undefined)
-6%,Cc1ccc(S(=O)(=O)N2CCCC2C(=O)OCc2nc3sc(C)c(C)c3c(=O)[nH]2)cc1 (centres undefined)
0%,O=C(NCCOCCn1c(=O)oc2ccccc21)Nc1ccc(F)cc1F
-2%,Cc1cc(C)n2nc(S(=O)(=O)N(C)Cc3ccccc3)nc2n1
3%,COc1ccccc1N1CCN(c2ncc3c(n2)CCN(Cc2ccccc2C)C3)CC1
-20%,O=S(=O)(c1ccc(Br)cc1)c1nc(-c2ccccc2)oc1NCCN1CCOCC1
-13%,COC(=O)c1c(C)oc(C)c1S(=O)(=O)NCc1ccc(Cl)cc1
-15%,C/C=C/c1ccc(OCCOc2ccc(C=O)cc2OC)c(OC)c1
7%,O=C(Cn1cnc2ccccc21)c1ccccc1
4%,Cn1c(C(=O)NCCc2ccccc2)cc2cc(S(=O)(=O)N3CCCCC3)ccc21
-4%,CC(C)Cn1c2c(c(O)c(C(=O)Nc3nc4ccccc4s3)c1=O)CCCC2
4%,O=C(CSc1nnnn1-c1ccc(O)cc1)NC1CCCCC1
2%,COc1ccc(CC(=O)N2N=C(c3ccncc3)CC2(O)C(F)(F)F)cc1 (centres undefined)
2%,O=C(Oc1coc(CSc2ncccn2)cc1=O)c1ccco1
12%,CC(C)CCNC(=O)C(C)N(Cc1ccc(F)cc1)C(=O)c1ccc(CN2CCCCC2)o1 (centres undefined)
-20%,CCCCNC(=O)N(C)c1nc2ccccc2s1
-18%,Cc1cc(C)c2nc(N(CCCN(C)C)C(=O)c3ccc(S(=O)(=O)N4CC(C)OC(C)C4)cc3)sc2c1 (centres undefined)
-22%,CC(c1n[nH]c(=S)n1-c1ccc(Cl)cc1)N(C)C (centres undefined)
-13%,Cc1cc(N2C(=O)c3ccc(C(=O)Nc4ccc(O)cc4C(=O)O)cc3C2=O)no1
13%,O=C(NCCS(=O)(=O)N1CCN(c2ccccc2)CC1)C(c1ccccc1)c1ccccc1
-4%,c1ccc(-c2cc3c(N4CCN(c5ccccc5)CC4)ncnc3s2)cc1
-1%,CC1Cc2ccccc2N1S(=O)(=O)c1nnc(NC(=O)c2cccc(F)c2)s1 (centres undefined)
-4%,CC(C)=CCCC(C)CN1CCC(N2CCC(C(=O)N3CCCC3)CC2)CC1 (centres undefined)
0%,CCOCCn1c(=O)c2c(nc3n2CC(C)CN3CCc2ccccc2)n(C)c1=O (centres undefined)

# 3 of the compounds above, with each value named:
O=C(CSc1nnnn1-c1ccc(O)cc1)NC1CCCCC1
  VDR inhibitor: 4%
COc1ccc(CC(=O)N2N=C(c3ccncc3)CC2(O)C(F)(F)F)cc1 (centres undefined)
  VDR inhibitor: 2%
O=C(Oc1coc(CSc2ncccn2)cc1=O)c1ccco1
  VDR inhibitor: 2%

# Other entries follow.
VDR inhibitor,structure
3%,COc1ccc(CC(=O)OC(C)CN2CCCC2)cc1 (centres undefined)
-12%,Cc1ccccc1C(=O)NC(=S)Nc1sc2c(c1C#N)CCC(C)C2 (centres undefined)
-23%,c1cn(-c2ccnc(-c3ccc4c(c3)OCO4)n2)cn1
-2%,Cc1cc(C(=O)COC(=O)c2nn(C)c(=O)c3ccccc23)c(C)n1C
-5%,CCc1nc2ccccc2n1CC(=O)NC1CCS(=O)(=O)C1 (centres undefined)
4%,CN(CCCNC(=O)C1CCC(CNS(=O)(=O)c2ccccc2)CC1)Cc1ccccc1 (centres undefined)
-11%,C#CCOCCOCCOCCNc1nc(N2CCN(C(=O)Cn3cc(CCO)nn3)CC2)nc(N2CCN(C(=O)[C@H]([C@@H](C)CC)n3cc(CCCCN)nn3)CC2)n1
-4%,Cc1cc(C(F)F)n2ncc(C(=O)NCCc3ccc(Cl)cc3)c2n1
-2%&4%,Cc1cc(C)c(NS(=O)(=O)c2ccc3c(c2)NC(=O)CCS3)c(C)c1
-1%,Cc1ccccc1OCCC(=O)Nc1ccc(Cl)cc1F
1%,CCc1nn(C(CC)C(=O)NCc2cccc(OC)c2OC)c(=O)c2cc3occc3n12 (centres undefined)
u,COc1ccc(Nc2cnn(-c3nc4ccccc4s3)c(=O)c2Cl)cc1
-5%,CC1CCN(c2ccc(-c3nc(-c4ccccc4)no3)cc2[N+](=O)[O-])CC1
11%&-19%,Cc1c(NC(=O)Nc2ccccc2C(F)(F)F)c(=O)n(-c2ccccc2)n1C
-1%,COc1ccc(-c2nc(-c3ccc4c(c3)OCO4)[nH]c2-c2ccc(OC)cc2)cc1
12%,O=C(Nc1ccccc1C(F)(F)F)c1cc(-c2cccc(O)c2)on1
17%,Cc1c(C(=O)Nc2ccc3c(c2)CCC3)cccc1[N+](=O)[O-]
-13%,CCOc1ccc2nc(C(=O)N3CCCC(C)C3)sc2c1 (centres undefined)
-6%,COc1ccc(N2CCN(C(=O)c3ccc(CS(=O)(=O)c4ccc(OC)cc4)o3)CC2)cc1
-3%,CCOc1ccccc1NC(=O)C1CCCN(C(=O)Nc2ccccc2)C1 (centres undefined)
-11%,CC(C)(C)OC(=O)C[C@@H]1C/C=C\C[C@H](CC(=O)NCCO)C(=O)N[C@@H](Cc2ccccc2)COC1=O
0%,COc1ccc2c(Cl)c(C(=O)NCCc3ccc(S(N)(=O)=O)cc3)sc2c1
0%,N#C/C(=C\c1ccncc1)c1nc2ccccc2[nH]1
9%,O=C(Nc1c(C(=O)N2CCN(c3ccccc3F)CC2)oc2ccccc12)c1ccccc1F
-4%,CCOC(=O)c1nn(-c2ccccc2F)c2nc(Nc3ccccc3)cc(=O)n12
-20%,COc1ccc(-c2noc(N3CCC(C(=O)Nc4ccc(OC)cc4OC)CC3)n2)cc1
-16%,O=C(CCCCCNC(=O)N1CCn2c1nc1ccccc12)NCCc1ccccc1
-3%,Cc1ccc2c(c1)-c1c(cnn1CC(=O)Nc1ccccc1C#N)CO2
10%,O=C(COc1cccc(F)c1)NNC(=O)Cc1ccc(Br)cc1
11%,CCOC(=O)c1c(C)[nH]c(NC(=O)Nc2c(C)n(C)n(-c3ccccc3)c2=O)c1C

# The final 2 records of the part above lead into the next.
VDR inhibitor,structure
10%,O=C(COc1cccc(F)c1)NNC(=O)Cc1ccc(Br)cc1
11%,CCOC(=O)c1c(C)[nH]c(NC(=O)Nc2c(C)n(C)n(-c3ccccc3)c2=O)c1C
u,CCc1ccccc1NC(=S)/N=C(\N)Nc1nc(C)c2cc(C)ccc2n1
3%,COCCN1C(=S)NC(c2cccc(C(F)(F)F)c2)C(C(=O)N2CCOCC2)=C1C (centres undefined)
-9%,Cc1cccc(NC(=O)C2CCCN2C(=O)NC2CCCCC2)c1 (centres undefined)
4%,Cc1ccc(N2CC(C(=O)OCC(=O)C(C)(C)C)CC2=O)cc1 (centres undefined)
-17%,COc1ccc(C(=O)COc2ccccc2C#N)cc1
8%,COc1ccc(NC(=O)c2cc(-c3ccccn3)nc3ccccc23)c(OC)c1
3%,O=C(Nc1ccc(N2CCCCC2)cc1)C1CCCN1S(=O)(=O)c1ccc(F)cc1 (centres undefined)
3%,Cc1ccc(C(=O)Nc2cccnc2)cc1S(=O)(=O)N1CCOCC1
-9%,CCOC(=O)c1c(NC(=O)c2cc(-c3cccc(O)c3)on2)sc(C(C)=O)c1C
-7%,COc1ccc(N2CCN(C(=O)Cc3ncc(C(F)(F)F)cc3Cl)CC2)cc1
1%,Cc1sc2ncnc(N[C@@H](CCC(=O)O)C(=O)O)c2c1C
-6%,CCOC(=O)N1CCN(C2CCCN(C(=O)c3ccccc3C(F)(F)F)C2)CC1 (centres undefined)
7%&5%,CCOc1ccc(CNC(=O)C2CCCN(c3nnc(C)c4c(C)n(-c5ccccc5)nc34)C2)cc1 (centres undefined)
0%,Cc1ccc(NC(=O)CSc2nnc(-c3ccco3)o2)c(C)c1
1%,Cc1nnc(NC(=O)CSc2nnc(Cc3cccn3C)n2-c2ccccc2)s1
-9%,CC1=Nc2cc(C(=O)NCCc3ccccc3)ccc2Sc2c(C)ccc(C)c21
1%,COc1cc(OC)cc(C(=O)N/N=C/c2ccc(OC)c(COc3ccc(F)cc3)c2)c1
6%,Cc1ccc(NC(=O)CCC(=O)NNC(=S)Nc2ccc(F)cc2)c(C)c1
6%,O=C(O)c1cnn2c1C(=O)N(Cc1cccs1)CC2
29%,CCCc1nc2c(=O)[nH]c3ccccc3c2o1
-5%,CC(OC(=O)CCN=C1NS(=O)(=O)c2ccccc21)C(=O)Nc1ccc(F)cc1 (centres undefined)
-2%,Cc1ccc(NC(=O)CNc2cccc(C)c2C)c(C)c1
-3%,CCC(CC)(CC(=O)Nc1cccc(/C=C/c2nc(C3CCC3)cs2)c1)C(=O)O
3%,C=Cc1ccc(Cn2c(=O)cc(C)c3c(C)nn(C)c32)cc1
7%,Cc1ccc2c(C)c(C(=O)N3CCN(Cc4ccccn4)CC3)oc2c1C
5%,CCN1CCC(N(Cc2ccc(F)cc2)C(=O)Nc2cc(Cl)ccc2C(=O)OC)CC1
-12%,Cc1ccc(C(=O)NN2C(=O)/C(=C/c3cccn3C)SC2=S)cc1
-10%,C/C(=N\NC(=O)c1c[nH]c2ccccc12)c1ccc2c(c1)OCO2
11%,CN1CCC(N(C)C(=O)c2cccc(S(=O)(=O)N3CCOCC3)c2)CC1
-8%,O=C(O)c1c[nH]c2c([N+](=O)[O-])cccc2c1=O
19%,CCN(CC)CCNC(=O)c1cc([N+](=O)[O-])c(N(C)C)cc1OC
-1%,Cc1nc2c(-c3ccccc3)c(C)nn2c(C)c1CCC(=O)N1CCN(c2ccc(F)cc2)CC1
